Bioassay records from PubChem.
Bead autofluor: compound fluorescence in toxin protease inhibitor counterscreen; compound autofluorescence counterscreen, microsphere flow cytometry; stronger effect = higher value; fluorescence intensity (concentration not given with the values); 360,000 compounds, 3.1% hits; AID 624483;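 active = at least 3 SD above the mean of all compounds, about 16000 in these data; inconclusive = too few beads counted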;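 also: 100 nL of 1 mM stock went into each well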
PrP UTR inh: inhibition of PrP 5' UTR reporter expression; cell-based PrP 5' UTR mRNA reporter, plate reader; inhibition, % (no concentration beside the values); 340,000 compounds, 0.35% hits;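 active = every replicate at 50% or more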;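 also: 0 = median of the neutral control wells; tested in H4 reporter cells; numbers are from one replicate; inactives centre near -14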
Sa ugtP lethal: kills S. aureus RN4220 lacking UgtP. S. aureus RN4220 ugtP deletion, OD600 growth, 16 h; some inactives read as strong as hits. growth inhibition, % (no concentration beside the values). 330,000 compounds, 0.54% hits;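 active = z-score under -3 and OD600 up to 0.15 on both plates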;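 also: plate controls were untreated wells for no effect and antibiotic for full effect; wells of about 80 µL received 100 nL stock; the first replicate is given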
Mtb hypoxia rep: inhibitors of hypoxia-regulated fluorescent reporter in Mycobacterium tuberculosis. M. tuberculosis hypoxia-regulated fluorescent reporter, fluorescence. fluorescence inhibition, % (test concentration not listed). 300,000 compounds, 0.1% hits. AID 1159583;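 active = 35 to 45% if threefold the growth effect, above 45% if 1.5-fold the growth effect; inactive = the rest, general growth blockers included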;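 also: wells of about 50 µL received 100 nL stock; 0% = vehicle wells and 100% = reference inhibitor wells; whole bacteria with a GFP reporter of the hypoxia response; strong numbers were not always called active; many hits fall short of the cut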
RN4220 kill: S. aureus RN4220 growth inhibition; inhibition, % (test concentration not listed); 330,000 compounds, 0.33% hits; OD600, 16 h;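 active = z-score of -3 or lower and OD600 up to 0.18 on both plates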;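 also: plate controls were untreated cells for no effect and reference antibiotic for full effect; stock transfer was 100 nL into about 80 µL; one replicate is shown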
BJeLR viability: kills HRASV12-expressing BJeLR cells; BJeLR (HRASV12) viability, CellTiter-Glo ATP luminescence, 48 h; reference of the scale not given here; inhibition, % (concentration not given with the values); 300,000 compounds, 0.17% hits;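 active = replicate mean above 50%; inconclusive = above 50% but judged a plate artefact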;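 also: 50 nL library stock added to about 25 µL; numbers are from one replicate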
Mtb hypoxia rep growth: also measured in Mtb hypoxia rep; calls as there; growth inhibition, %; measured here: M. tuberculosis growth (absorbance);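 0% = vehicle and 100% = reference antibiotic; read after six days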
The depositor's hits bear a star; ? = inconclusive; . = no result given.

SMILES	Bead autofluor	PrP UTR inh	Sa ugtP lethal	Mtb hypoxia rep	Mtb hypoxia rep growth	RN4220 kill	BJeLR viability
COc1ccc(C(C)=NOC/C(O)=C(\C#N)c2nc3ccccc3[nH]2)c(OC)c1	.	.	8	5	4	3.6	.
O=C(Nn1cc(C(=O)N2CCN(c3ccccc3F)CC2)c2ccccc2c1=O)c1cnccn1	4076	-12	10	4	14	2.8	-16
CNC(=O)C1CC(=O)N(c2ccc(F)c(Cl)c2)C1 (stereo not drawn)	3761	-4	5	3	3	1.3	0
COC(=O)C1=C(C)N(C(C)C)C(=O)C1(NC(=O)C1CCCCC1)C(F)(F)F (stereo not drawn)	19805*	-16	2	4	2	-0.3	3
COC(=O)/C(=N\Nc1ccc(Cl)cc1)Sc1nnc(-c2ccc(OC)cc2)n1C	7436	-8	.	.	.	.	4
O=C(CCc1nnc2n(Cc3ccccc3)c(=O)c3ccccc3n12)NCCN1CCOCC1	4354	-13	4	.	.	-0.2	-6
COc1ccc2cc(-c3nc4ccccc4n3C)c(=O)oc2c1	12980	-87	0	0	9	0.2	1
COc1ccc(N(Cc2ccccc2)S(=O)(=O)c2ccc(C)cc2)cc1	4833	-1	35	11	-4	7.2	-1
O=C1CC2c3c(cccc3CN1Cc1ccccc1F)CC(O)C2O (stereo not drawn)	.	.	5	14	8	9.0	.
COc1ccc(NC(=O)CCNS(=O)(=O)c2ccc(C)c(C)c2)cc1OC	3317	-10	-2	4	-4	1.7	-4
Cc1cc(NC(=O)c2cc(-c3ccccn3)nc3ccc(Br)cc23)no1	4326	-6	-11	-4	-8	-4.2	-12
CC(=O)N1CCc2cc(C(=O)CN3CCCCC3)ccc21	5666	-48	4	2	-1	8.5	-1
COC(=O)c1cccc(C23CC4(C2)[C@H](CN(Cc2ccc(-c5ccccc5)cc2)[C@@H]4c2ccccc2)C3c2ccccc2)c1 (stereo partly drawn)	4287	-18	.	.	.	.	4
CCC(=O)N1CCc2cc(S(=O)(=O)N3CCN(C(=O)c4ccco4)CC3)ccc21	3917	-15	-2	3	8	-5.0	4
COc1ccc(/C=N/NC(=O)COc2cc(C)cc(C)c2)cc1COC(C)=O	7269	0	.	.	.	.	0
CC(C)=C(NC(=O)c1ccccc1)C(=O)NCc1ccccc1	4349	-27	1	10	3	2.5	-10
Cc1cc(C)nc(CCNC(=O)c2cc(COc3ccccc3)on2)n1	6317	-14	4	3	7	1.2	1
O=C(NCc1ccccn1)Nc1ccc(Br)cc1Cl	6459	-50	.	.	.	.	-1
CCOC(=O)NC(Nc1ccc(OC)cc1)(C(F)(F)F)C(F)(F)F	9191	4	2	-1	3	3.6	-6
COc1ccccc1CC(=O)O/N=C(\N)Cc1cccc2ccccc12	22659*	-12	0	6	14	6.9	-13
COc1ccc(NC(=O)C2CCCN(c3nn4c(=O)cc(C)nc4s3)C2)c(OC)c1 (stereo not drawn)	5464	13	2	2	3	2.2	4
COc1ccc(C)cc1S(=O)(=O)Nc1cccc(C)c1	4396	-16	-7	5	6	5.1	0
CN(C)CCCN(Cc1cc2cc3c(cc2[nH]c1=O)OCO3)C(=S)Nc1cccc(Cl)c1	3847	-6	-3	9	-1	-3.4	-1
CC(Oc1ccc(Cl)cc1Cl)C(=O)NCCCN1CCOCC1 (stereo not drawn)	5952	2	5	0	5	2.5	2
Cc1ccc(C)c(CN2CCC(CNC(=O)CCc3nnc4ccc(N5CCC(C)CC5)nn34)CC2)c1	5003	-7	-4	1	8	0.2	-12
O=C(C(c1ccccc1)c1ccccc1)N1CCC(c2nc(-c3ccccc3Cl)no2)CC1	2325	-14	-8	.	.	-0.3	0
O=C(COc1ccccc1)Nc1nc2cc3c(cc2s1)OCO3	5943	-19	2	7	1	3.5	-1
CC(=O)c1ccc(N2CCN(C(=S)Nc3ccc(Oc4ccccc4)cc3)CC2)cc1	3244	48	3	-7	6	5.5	2
O=C(COC(=O)C1(c2ccccc2F)CCCC1)NC1CCS(=O)(=O)C1 (stereo not drawn)	?	-2	5	5	2	4.8	13
O=C(c1ccccc1)c1cccn1CC(=O)N1CCc2ccccc2C1	4399	-15	20	5	2	5.0	1
Cc1nnc(SCc2c(Cl)cccc2[N+](=O)[O-])s1	1966	-13	1	2	2	-0.3	-9
CN(C)C=NC1=NN(c2cccc(C(F)(F)F)c2)CC1	2931	-43	-4	7	9	1.8	-7
COc1ccc(NS(=O)(=O)c2ccc(S(=O)(=O)N3CCOCC3)cc2)cc1	4276	-32	1	5	5	10	16
COc1ccc(/C=N/NC(=O)CC(=O)NC2CCCCC2)cc1	4618	-32	.	.	.	.	2
Cc1cccc(-c2nc(N)nc(N)n2)c1	6209	-26	1	2	0	5.4	-2
CCCCCSc1nnc2c(n1)OC(C)N(C(C)=O)c1ccccc1-2 (stereo not drawn)	5905	-12	-1	5	6	5.0	2
CC(NC(=O)Nc1ccccn1)N1C(=O)C2C3C=CC(C3)C2C1=O (stereo not drawn)	2497	-15	6	6	3	8.6	-5
CCCOC(=O)c1ccc(Oc2cn[nH]c2-c2ccc(OC)cc2O)cc1	2395	-17	27	3	3	-5.0	0
COc1ccc(NS(=O)(=O)c2cc(Br)cc3c2N(C(C)=O)CC3)cc1	6136	-12	6	5	-1	2.6	19
COc1cccc(CN2CCC(C(=O)N3CCN(Cc4ccc5c(c4)OCO5)CC3)CC2)c1OC	6167	-13	7	6	7	2.8	8
O=C(O)COc1ccccc1C=Nn1c(C2CCCCC2)n[nH]c1=S	.	.	6	-5	-9	1.7	.
COc1ccc(/C=C(\C#N)C(=O)Nc2ccc3[nH]c(=O)[nH]c3c2)cc1	3713	-8	.	.	.	.	-5
C/C(=N\NC(=O)c1cccc2ccccc12)c1cccs1	6224	-37	.	.	.	.	6
CCn1cnc2c1c(=O)n(CC(=O)Nc1ccc3c(c1)OC(F)(F)O3)c(=O)n2Cc1ccccc1	2282	-1	4	.	.	4.2	1
Cc1nc(C)n(CC(O)COc2ccc3ccccc3c2)n1 (stereo not drawn)	10323	-19	0	9	-1	-1.0	6
CC(C)Oc1ccc(/C=N/NC(N)=S)cc1	2561	-41	.	.	.	.	0
Cc1ccc(CN2CCN(/N=C/c3cccnc3)CC2)c(C)c1	2781	-20	.	.	.	.	-4
Cc1ccc(NC(=O)CCC(=O)NNC(=S)Nc2ccccc2)c(C)c1	4497	-27	3	-2	4	2.2	-3
COc1ccc(Cl)cc1NC(=O)CN1CCC(NC(=O)C2CC2)CC1	3060	2	10	7	-1	4.5	-8
Cc1cc(C)n(CCC(=O)N=Nc2c(O)[nH]c3ccc(Br)cc23)n1	4393	-14	12	2	-4	5.2	-9
CCCn1c(N)c(C(=O)CSc2nnc(Cc3cccs3)n2C2CC2)c(=O)n(C)c1=O	7653	-3	4	6	-1	3.8	.
O=C(Cn1c2c(c(=O)n3ncnc13)CCC2)N/N=C/c1ccc(Cl)cc1	5893	-8	.	.	.	.	-4
CCOc1ccc(-c2nnn(CC(=O)Nc3cccc(OC)c3)n2)cc1OCC	8717	-1	2	-2	1	-2.4	5
CCOc1cc(C(=O)NN=Cc2cn(CC)nc2C)cc(OCC)c1OCC	.	.	4	-5	4	-4.4	.
CC1CCCCN1CC(=O)c1ccc2cc[nH]c2c1 (stereo not drawn)	6734	-7	.	.	.	.	-20
CCn1c(CNC(=O)C23CC4CC(CC(C4)C2)C3)nnc1SCC(=O)Nc1nnc(C)s1	5917	-33	5	0	7	12	-7
COc1ccc(Cn2c(=O)[nH]c3cc(C(=O)N4CCN(c5ccc(OC)cc5)CC4)ccc3c2=O)cc1	3337	-16	1	6	-3	2.9	-5
O=C(Nc1cc(C(F)(F)F)ccc1N1CCCC1)c1cccnc1	.	-5	-3	0	7	-0.7	8
COc1nc(Cc2ccc(Cl)cc2)nc2ccccc12	2352	-13	4	12	13	11	-6
COCCn1c(SCC(=O)NC(=O)NCc2ccccc2)nc2ccccc2c1=O	.	-22	4	0	-1	3.3	.

(listing goes on)
SMILES	Bead autofluor	PrP UTR inh	Sa ugtP lethal	Mtb hypoxia rep	Mtb hypoxia rep growth	RN4220 kill	BJeLR viability
CC(C)CCNC(=O)C(c1ccco1)N(C(=O)Cn1nnc2ccccc21)c1ccc2c(c1)OCO2 (stereo not drawn)	2500	-1	-7	-1	-2	-2.9	-1
CC(C)c1ccc(NC2=NCC(=O)N2Cc2cccs2)cc1	1945	-22	15	-12	-9	10	11
Cc1ccc(C)c(OCCC(=O)OCC(=O)N2CCN(S(=O)(=O)c3ccc(Cl)cc3)CC2)c1	5620	-19	.	.	.	.	5
CC(=O)Nc1ccc(NCN2C(=O)[C@@H]3[C@H]4CC[C@H](C4)[C@@H]3C2=O)cc1	2418	-32	10	12	3	3.2	6
CCCCN(C)/C=N/c1c(C#N)cnn1-c1ccc(C)cc1	5067	-26	.	.	.	.	0
CC1(C)CC2(CCO1)N1CC3(C)CN2CC(C)(C1)C3O (stereo not drawn)	3601	-6	9	.	.	2.4	8
CCc1nnc(SCC(=O)Nc2ccc(N3CCOCC3)cc2)n1C	5851	-19	.	.	.	.	-9
CNC(=O)c1nc(C)n(-c2ccc(Cl)cc2Cl)n1	4806	-9	0	10	5	7.6	3
O=C(Nc1ccccc1)NC1CCS(=O)(=O)C1 (stereo not drawn)	2398	-16	6	5	5	9.5	-2
CN(C)CCCNC(=S)N(CCCN(C)C)Cc1cc2cc3c(cc2[nH]c1=O)OCO3	4189	22	0	12	6	7.6	-3
COc1ccc(C(C)=O)cc1COC(=O)c1c(C)nn(-c2ccccc2)c1C	4157	6	8	-1	5	7.1	-10
O=C(NCc1ccco1)C1CC(c2cccc([N+](=O)[O-])c2)=NO1 (stereo not drawn)	2881	-15	-1	20	13	7.0	0

Fetched by compound from above, 3 records:
SMILES	Bead autofluor	PrP UTR inh	Sa ugtP lethal	Mtb hypoxia rep	Mtb hypoxia rep growth	RN4220 kill	BJeLR viability
CCCCN(C)/C=N/c1c(C#N)cnn1-c1ccc(C)cc1	5067	-26	.	.	.	.	0
CC(C)c1ccc(NC2=NCC(=O)N2Cc2cccs2)cc1	1945	-22	15	-12	-9	10	11
CC(C)CCNC(=O)C(c1ccco1)N(C(=O)Cn1nnc2ccccc21)c1ccc2c(c1)OCO2 (stereo not drawn)	2500	-1	-7	-1	-2	-2.9	-1

The list goes on.
SMILES	Bead autofluor	PrP UTR inh	Sa ugtP lethal	Mtb hypoxia rep	Mtb hypoxia rep growth	RN4220 kill	BJeLR viability
CCOc1ccc(NC(=O)c2ccc(N3CC4CC(C3)c3cccc(=O)n3C4)c(NC(=O)c3ccncc3)c2)cc1 (stereo not drawn)	6306	-1	8	4	6	1.7	-4
O=C(CN1CCN(S(=O)(=O)c2ccc(F)cc2)CC1)Nc1ccccc1C(=O)NC1CC1	5322	-17	0	-1	7	4.9	.
CC(C)Cc1nc(Cl)c(C#N)c2c1CCCC2	2561	0	6	8	9	4.3	3
O=C1c2ccccc2C(=O)N1Cc1nn2c(-c3ccc(Cl)cc3)nnc2s1	3925	-14	2	.	.	19	5
O=C1CC(c2cccc(Cl)c2)CC(O)=C1C=Nc1cccc(Cl)c1 (stereo not drawn)	2200	10	6	0	-1	2.2	12
O=C(CSc1cccc[n+]1[O-])c1ccc(Cl)cc1	4514	-26	5	16	13	6.8	2
CC(C)(C)C1COc2ccccc2N1C(=O)c1cccc(Cl)c1 (stereo not drawn)	3861	-7	24	9	2	2.4	-6
Cc1nonc1NC(=O)CSc1nc2ccccc2[nH]1	1982	5	5	9	13	3.4	-4
CC(C)(C)C(=O)CSc1nnc(Nc2ccccc2)s1	3972	-33	0	-5	14	-3.3	3
O=C(/C=C/c1ccccc1)Nc1cc(C(=O)O)cc(C(=O)O)c1	2207	-60	8	-8	6	2.5	4
COc1cc2nc(C3CCC3)nc(N3CCN(c4ccccc4OC)CC3)c2cc1OC	2435	-6	5	12	7	3.6	1
Cc1cc2c(c(=O)o1)C(C13C=CC(CC1)C3)C(C#N)=C(N)O2 (stereo not drawn)	4403	-18	-10	.	.	4.9	6
COCCNC(=S)NN=C1CCCCCC1	4492	-18	-7	-4	-2	-3.6	10
CCOC(=O)c1sc(NC(=O)c2cc(-c3cccc(O)c3)on2)c(C(=O)OCC)c1C	5991	-72	8	2	14	-1.4	-4
O=C(NNC(=O)c1ccccc1OCc1ccccc1)c1ccccc1F	3801	-55	6	18	10	7.4	3
